rRNA inh HTS = selective bacterial rRNA inhibition in E. coli; E. coli WT GFP vs humanized-ribosome RFP mutants, fluorescence, 24 h; hits give low values; DMSO median 0, no signal -100; GFP signal change (wild-type ribosome), % (no concentration beside the values); 350,000 compounds, 1.6% hits; AID 720706;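 active = significant combined selectivity score with lowered wild-type GFP, culture density cut under 30%, mutant RFP and density less affected; inactive = any of these conditions unmet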; note: one replicate is shown; some compounds called inactive have numbers as strong as hits
rRNA inh HTS OD600 = recorded beside rRNA inh HTS, whose call it bears; OD600 change, %; measured here: OD600 growth;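 optical density of the mix in the first replicate; 0 = DMSO median and -100 = no signal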
rRNA inh HTS RFP = further read-out of rRNA inh HTS, marked with its call; RFP signal change, %; measured here: RFP humanized mutant strains;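 first replicate; 0 = DMSO median and -100 = no signal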
* hit, by the source's call; & = joins results of further samples. The list is partial; count on the stated rates, not on these rows.

rRNA inh HTS OD600 | rRNA inh HTS RFP | rRNA inh HTS | SMILES
1.2 | -1.9 | 3.1 | COc1ccc(NC(=O)Nc2ccc3c(c2)C(=O)N([C@H](C)CO)C[C@@H](C)[C@H](CN(C)C(=O)Nc2ccc4c(c2)OCO4)O3)cc1
8.0&-1.7 | -3.0&-4.4 | 0.3&0.4 | COc1cccc(-c2ccc(C3[C@@H]4CN(S(=O)(=O)c5cn(C)cn5)C[C@H]3N4)cc2)c1 (some centres not stated)
8.9 | -1.7 | 7.1 | COC(=O)Cc1ccccc1NS(=O)(=O)c1ccc(C)cc1
-20.8 | 5.5 | -14.0 | COC(=O)C1=C(C)N(Cc2ccccc2C(F)(F)F)C(=NCc2cc(OC)c(OC)c(OC)c2)NC1c1cccc(Cl)c1 (configuration not stated)
2.9 | 0.0 | -0.2 | Cc1noc(C)c1C(=O)N(C)C[C@H]1OCc2ccccc2-c2ccccc2C(=O)N([C@@H](C)CO)C[C@H]1C
-3.6 | -3.5 | -3.3 | COC(=O)[C@]12CCCCC=C1N(CCc1ccc(OC)c(OC)c1)C(=O)[C@H](CC(=O)NCCCCc1ccccc1)C2
-7.1 | 0.7 | -3.7 | COc1ccc(NC(=O)C2C(c3ccc4c(c3)OCO4)=Nc3ccccc3N2C(C)=O)cc1 (configuration not stated)
-28.9 | 2.7 | -7.7 | OC[C@H]1Nc2ccc(C#Cc3ccc(F)cc3)cc2[C@H]2[C@@H]1CCN2Cc1nccs1
12.8 | -1.1 | -0.5 | COc1ccc2c3c([nH]c2c1)[C@@H](CO)N(C(=O)CC1CC1)CC31CCN(Cc2ccncc2)CC1
18.6 | 3.9 | 24.9 | O=C(N[C@H](Cc1ccccc1)C(=O)N1CCN(C(=O)N2CCOCC2)CC1)[C@H]1O[C@@H](n2ccc(=O)[nH]c2=O)[C@H](O)[C@@H]1O
0.4 | 5.3 | -8.3 | COc1ccc(C(=O)C[C@@H]2OC[C@H](C)N2S(=O)(=O)c2ccc(C)cc2)cc1OC
2.4 | -2.3 | 0.9 | C[C@H](CO)N1C[C@H](C)[C@H](CN(C)C(=O)Nc2ccc(C(F)(F)F)cc2)OCCCC[C@H](C)Oc2ccc(N(C)C)cc2C1=O
5.1 | -3.6 | 0.7 | CC(C)NC(=O)N1C[C@H]2[C@@H](c3ccccc31)[C@@H](CO)N2Cc1ccccn1
-16.9 | 7.4 | -2.2 | COc1cccc(-c2ccc3c(c2)[C@H]2[C@H](CCN2C(=O)c2ccc(F)cc2)[C@@H](CO)N3C)c1
-12.3 | -0.8 | -0.4 | C[C@@H]1CN([C@@H](C)CO)C(=O)Cc2cc(NC(=O)Nc3ccccc3)ccc2O[C@@H]1CN(C)C(=O)Nc1ccc(C(F)(F)F)cc1
0.2 | -1.2 | 0.5 | O=C(N[C@H]1CC[C@@H](CC(=O)N2CCc3ccccc3C2)O[C@@H]1CO)C1CCOCC1
0.3 | 1.3 | -3.4 | C[C@@H]1CN([C@H](C)CO)C(=O)CCCn2cc(nn2)CO[C@@H]1CN(C)C(=O)Nc1ccc(C(C)(C)C)cc1
-11.1 | -0.4 | -3.3 | C[C@@H]1CN([C@@H](C)CO)S(=O)(=O)c2ccc(C3=CCCC3)cc2O[C@H]1CN(C)C(=O)C1CC1
-17.5 | 3.7 | -2.5 | CCCNC(=O)Nc1ccc2c(c1)C(=O)N(C)C[C@@H](OC)[C@H](C)CN(Cc1ccccc1)[C@@H](C)CO2
-75.8 | -8.4 | -48.9 | O=C(c1cccc(F)c1)N1CC[C@H]2[C@H](CO)Nc3ccc(-c4cccc(F)c4)cc3[C@H]21
-5.1 | 8.2 | -6.8 | CO[C@@H]1CN(C)C(=O)c2ccc(NC(=O)c3cccc(Oc4ccccc4)c3)cc2OC[C@H](C)NC[C@@H]1C
8.0 | -2.7 | 3.3 | C[C@@H]1CCCCO[C@H](CN(C)C)[C@H](C)CN([C@@H](C)CO)C(=O)c2cc(NS(C)(=O)=O)ccc2O1
-11.8 | 1.0 | -12.4 | C[C@@H]1CN([C@@H](C)CO)C(=O)c2cccc(N(C)C)c2O[C@@H]1CN(C)C(=O)Nc1ccc(C(F)(F)F)cc1
6.4 | -2.0 | 4.9 | CCCNC(=O)Nc1ccc2c(c1)C(=O)N(C)[C@H]1CC[C@H](CC(=O)O)O[C@@H]1CO2
-4.2 | 3.0 | 0.9 | Cc1ccc(-c2ccc3c(c2)O[C@@H](CN(C)C(=O)C2CCCCC2)[C@@H](C)CN([C@@H](C)CO)S3(=O)=O)cc1
8.1 | 1.4 | 1.9 | Cc1noc(C)c1NC(=O)Nc1ccc2c(c1)C(=O)N([C@H](C)CO)C[C@@H](C)[C@H](CN(C)Cc1ccc(C(=O)O)cc1)OCCCC[C@H](C)O2
3.6 | 0.1 | -1.4 | C[C@H]1CCCCO[C@@H](CN(C)Cc2ccc(C(=O)O)cc2)[C@@H](C)CN([C@@H](C)CO)C(=O)c2cc(NS(=O)(=O)c3cn(C)cn3)ccc2O1
-7.2 | 2.1 | 0.4 | C[C@@H]1CN([C@@H](C)CO)C(=O)c2cc(NC(=O)C3CCCCC3)ccc2O[C@H]1CN(C)Cc1ccc(Oc2ccccc2)cc1
2.0 | 0.5 | 0.6 | C[C@@H]1CN(C)C(=O)Cc2cc(N(C)C)ccc2O[C@H]1CN(C)C(=O)OC(C)(C)C
-6.9 | -0.3 | 2.1 | CN1c2ccc(-c3cccc(C#N)c3)cc2[C@H]2[C@H](CCN2C(=O)C2CCC2)[C@@H]1CO
10.1 | 2.1 | 1.5 | C[C@H]1CN([C@@H](C)CO)C(=O)c2cc(NS(=O)(=O)c3ccccc3)ccc2O[C@H]1CN(C)S(=O)(=O)c1ccc(Cl)cc1
1.0 | -3.9 | -0.6 | C[C@@H]1COCc2cn(nn2)CC[C@@H](Cc2ccccc2)C(=O)N1
15.8 | 3.1 | 14.2 | CS(=O)(=O)c1ccc(OCCCN2CCC(C(O)(c3ccccc3)c3ccccc3)CC2)cc1
-74.0 | 7.8 | -43.1 | O=C(Nc1ccc(Cl)c(Cl)c1)N[C@H]1CC[C@H](CCn2cc(C3CCCC3)nn2)O[C@@H]1CO
5.8 | 2.3 | -3.2 | CN(C)C(=O)c1cccc(-c2ccc3c(c2)[C@@H]2[C@@H](CCN2Cc2ccccc2F)[C@@H](CO)N3)c1
14.5 | 1.7 | 17.0 | NC(=O)c1ncn([C@@H]2O[C@H](C(=O)N[C@H](Cc3ccccc3)C(=O)N3CCN(CC(=O)Nc4ccccn4)CC3)[C@@H](O)[C@H]2O)n1
-35.8 | 24.5 | 9.7 | CC(C)CC#Cc1ccc([C@@H]2[C@@H](CO)N3C(=O)CN(S(C)(=O)=O)C[C@@H]23)cc1
-1.3&-79.4 | 0.6&-18.1 | 0.3&-56.7 | COc1cccc(S(=O)(=O)N2C[C@@H]3N[C@H](C2)C3c2ccc(-c3ccccc3F)cc2)c1 (some centres not stated)
7.7 | 6.8 | 14.4 | Cc1ccccc1C(=O)N[C@@H](Cc1cccnc1)C(=O)N1CCC[C@H]1C(=O)NCCc1ccccc1Cl
-0.1 | -1.3 | -0.1 | C[C@@H]1CCCCO[C@H](CN(C)S(=O)(=O)c2cn(C)cn2)[C@@H](C)CN([C@@H](C)CO)C(=O)c2cc(NC(=O)Nc3ccccc3)ccc2O1
1.4 | 3.8 | 2.8 | C[C@H]1CN([C@@H](C)CO)S(=O)(=O)c2ccc(C#CC(C)(C)O)cc2O[C@H]1CN(C)Cc1ccc(F)cc1
-2.8 | -1.4 | -1.4 | CC(C)NC(=O)N1[C@@H]2CN(C)C[C@H]1C2c1ccc(Br)cc1 (some centres not stated)
-3.6 | -1.8 | 0.1 | C[C@@H]1CN(C)C(=O)Cc2cc(NS(C)(=O)=O)ccc2O[C@@H]1CN(C)C
-2.3 | 1.6 | -2.3 | COc1ccc(S(=O)(=O)N(C)C[C@@H]2Oc3c(NS(=O)(=O)c4ccc(Cl)cc4)cccc3C(=O)N([C@@H](C)CO)C[C@@H]2C)cc1
16.6 | 0.2 | 6.8 | COc1ccc(-c2cnc3c(c2)C(=O)N([C@@H](C)CO)C[C@@H](C)[C@@H](CN(C)S(=O)(=O)c2ccc(OC)cc2)O3)cc1
-2.8 | 2.1 | -1.3 | OC[C@@H]1[C@H](c2ccccc2)C2(CN(CC3CC3)C2)N1Cc1nccs1
9.2 | 2.1 | 2.2 | C[C@H](CO)N1C[C@H](C)[C@@H](CN(C)C(=O)C2CCC2)Oc2ncc(-c3ccncc3)cc2C1=O
-80.7 | -15.5 | -48.2 | Cc1cc(CN2CCN(c3ncc(Cc4ccccc4)cn3)CC2)cc(C)c1O
-3.6 | -1.6 | -3.9 | C[C@H](CO)N1C[C@H](C)[C@H](CN(C)C(=O)Nc2ccc(F)cc2)Oc2ncc(-c3cccc(C(F)(F)F)c3)cc2C1=O
-5.8 | 0.3 | -6.8 | CC(C)C#Cc1ccc2c(c1)O[C@H](CN(C)C(=O)NC(C)C)[C@@H](C)CN([C@@H](C)CO)S2(=O)=O

For reference, 4 of the compounds above.
rRNA inh HTS OD600 | rRNA inh HTS RFP | rRNA inh HTS | SMILES
1.4 | 3.8 | 2.8 | C[C@H]1CN([C@@H](C)CO)S(=O)(=O)c2ccc(C#CC(C)(C)O)cc2O[C@H]1CN(C)Cc1ccc(F)cc1
-2.8 | -1.4 | -1.4 | CC(C)NC(=O)N1[C@@H]2CN(C)C[C@H]1C2c1ccc(Br)cc1 (some centres not stated)
-3.6 | -1.8 | 0.1 | C[C@@H]1CN(C)C(=O)Cc2cc(NS(C)(=O)=O)ccc2O[C@@H]1CN(C)C
-2.3 | 1.6 | -2.3 | COc1ccc(S(=O)(=O)N(C)C[C@@H]2Oc3c(NS(=O)(=O)c4ccc(Cl)cc4)cccc3C(=O)N([C@@H](C)CO)C[C@@H]2C)cc1

(further entries)
rRNA inh HTS OD600 | rRNA inh HTS RFP | rRNA inh HTS | SMILES
-12.4 | 6.1 | 0.6 | COCC(=O)N(C)C[C@H]1Oc2cc(C#CC3CCCC3)ccc2S(=O)(=O)N([C@H](C)CO)C[C@H]1C
-3.0 | -2.4 | -0.4 | CCCNC(=O)Nc1ccc2c(c1)OC[C@H](C)N(Cc1cccnc1)C[C@@H](C)[C@@H](OC)CN(C)C2=O
4.9 | 6.0 | 11.7 | Cc1ccccc1CN1C(=O)CSCC1(C)C(=O)NCc1ccccc1 (configuration not stated)
-0.7 | -1.4 | -1.1 | Cc1cccc(NC(=O)C[C@H]2CC[C@H]3[C@@H](COc4ccc(NC(=O)NC(C)C)cc4C(=O)N3C)O2)c1
-1.7 | 5.1 | 1.9 | COc1ccc(NC(=O)Nc2ccc3c(c2)[C@H]2C[C@@H](CC(=O)N4CCOCC4)O[C@H](CO)[C@H]2O3)cc1
-9.4 | 6.6 | -4.4 | C[C@@H]1CN([C@@H](C)CO)C(=O)c2cc(NC(=O)Nc3cccc4ccccc34)ccc2O[C@@H](C)CCCCO[C@H]1CN(C)Cc1ccc2c(c1)OCO2
11.1 | -4.7 | 0.4 | COc1ccc2c3c([nH]c2c1)[C@H](CO)N(C(=O)NC(C)C)CC31CN(C(=O)c2ccccn2)C1
-0.1 | -0.6 | 3.4 | O=C(NC[C@H]1[C@@H](c2ccccc2)[C@@H](CO)N1Cc1ccccn1)C1CCC1
-6.0 | -1.6 | -3.0 | COC(=O)C[C@H]1CC[C@@H]2[C@@H](COc3ccc(NC(=O)c4cnccn4)cc3C(=O)N2C)O1
4.5 | 0.3 | 1.7 | COc1ccc(C(=O)Nc2ccc3c(c2)OC[C@@H](C)N(C)C[C@@H](C)[C@H](OC)CN(C)C3=O)cc1

Entries of single compounds, quoted from the list.
Cc1cccc(NC(=O)C[C@H]2CC[C@H]3[C@@H](COc4ccc(NC(=O)NC(C)C)cc4C(=O)N3C)O2)c1 as listed: rRNA inh HTS OD600 = -0.7; rRNA inh HTS RFP = -1.4; rRNA inh HTS = -1.1
COc1ccc2c3c([nH]c2c1)[C@H](CO)N(C(=O)NC(C)C)CC31CN(C(=O)c2ccccn2)C1 as listed: rRNA inh HTS OD600 = 11.1; rRNA inh HTS RFP = -4.7; rRNA inh HTS = 0.4

Next section:
rRNA inh HTS OD600 | rRNA inh HTS RFP | rRNA inh HTS | SMILES
7.2 | -0.5 | 6.5 | CC(C)NC(=O)N(C)C[C@@H]1Oc2ncc(C#CC3CCCCC3)cc2C(=O)N([C@H](C)CO)C[C@@H]1C
-3.8 | 4.7 | 4.2 | C/C=C/c1ccc([C@H]2[C@@H](CNC(C)C)N(C(=O)c3ccccc3)[C@H]2CO)cc1
-2.3 | -1.9 | 0.8 | COc1ccc(NC(=O)Nc2ccc3c(c2)C(=O)N([C@@H](C)CO)C[C@@H](C)[C@H](CN(C)C(=O)Nc2ccc4c(c2)OCO4)O3)cc1
-5.7 | 0.2 | -1.8 | COc1ccccc1C(=O)Nc1ccc2c(c1)OC[C@H](C)N(CC1CC1)C[C@@H](C)[C@@H](OC)CN(C)C2=O
-1.4 | 16.4 | -11.2 | CN1c2ccc(C3=CCCCC3)cc2[C@@H]2[C@@H](CCN2C(=O)NC2CCCCC2)[C@H]1CO
2.8 | 1.4 | 5.6 | C[C@@H]1CN([C@H](C)CO)C(=O)c2cc(C#Cc3ccccn3)cnc2O[C@H]1CN(C)CC1CCCC1
9.0 | 1.4 | 3.3 | CCCN(C)C[C@H]1Oc2ncc(C#CC3CC3)cc2C(=O)N([C@@H](C)CO)C[C@H]1C
8.8 | 8.7 | 0.7 | O=c1[nH]c(-c2ccccc2)cn1C1CCN(Cc2ccc(-c3nc4ccc(F)cc4nc3-c3ccccc3)cc2)CC1
10.2 | 8.4 | 18.8 | COc1ccc(C2CC(=O)C(c3ccc([N+](=O)[O-])cc3)=CN2Cc2ccccc2)cc1 (configuration not stated)
-1.1 | -1.0 | -2.4 | O=C(NC[C@@H]1[C@@H](c2ccccc2)[C@H](CO)N1C(=O)Cc1cccnc1)C1CCC1
-0.8 | -0.5 | -0.2 | CC(C)NC(=O)Nc1ccc2c(c1)C(=O)N([C@H](C)CO)C[C@H](C)[C@H](CN(C)Cc1ccc3c(c1)OCO3)OCCCC[C@H](C)O2

Screening results deposited in PubChem by Broad Institute.
